# Bioassay records: PubChem BioAssay, National Center for Advancing Translational Sciences (NCATS)
# CtBP-E1A blk – qHTS Assay for Inhibitors of the CtBP/E1A Interaction | AID 651724, 2012 | AlphaScreen GST-E1A/His-CtBP binding, 1536-well; stronger effect = lower value; control for the full effect not named in the record | hit rate 0.49% among 340,000 | activity change, % (test concentration not listed) | CtBP / adenovirus E1A interaction (AlphaScreen); in the data active means activity change below about -65%; inconclusive means about -30% to -65%; inactive means above about -30%; also: % is scaled to controls: 0 for no effect and ±100 for the full control effect; compound concentration not given in the record
#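 AlphaScreen with 125 nM GST-E1A and 125 nM His-CtBP (5X stocks) in Tris pH 8.0, 300 mM NaCl, BSA, Tween 20, TCEP. Compounds preincubated 2 h at 37 deg C, then glutathione donor/nickel acceptor beads added for 1 h at 37 deg C in dark.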
# TRPV1 PAM – HTS Assay for Compounds that Act as Potentiators of the Vanilloid Receptor 1 | Transient receptor potential cation channel subfamily V member 1 (Homo sapiens), Q8NER1 | TRPV1-expressing cells, Fluo-8 calcium influx, capsaicin EC20 potentiation; host cell line not named in the record; control for the full effect not named in the record | potentiation, % at 8.33 µM | hit rate 0.02% among 320,000 | AID 540277, 2011; active means potentiation above 80%; inconclusive means 30% to 80%; inactive means below 30%; also: 0% is about no effect
# Target sequence (Q8NER1 whole entry, looked up): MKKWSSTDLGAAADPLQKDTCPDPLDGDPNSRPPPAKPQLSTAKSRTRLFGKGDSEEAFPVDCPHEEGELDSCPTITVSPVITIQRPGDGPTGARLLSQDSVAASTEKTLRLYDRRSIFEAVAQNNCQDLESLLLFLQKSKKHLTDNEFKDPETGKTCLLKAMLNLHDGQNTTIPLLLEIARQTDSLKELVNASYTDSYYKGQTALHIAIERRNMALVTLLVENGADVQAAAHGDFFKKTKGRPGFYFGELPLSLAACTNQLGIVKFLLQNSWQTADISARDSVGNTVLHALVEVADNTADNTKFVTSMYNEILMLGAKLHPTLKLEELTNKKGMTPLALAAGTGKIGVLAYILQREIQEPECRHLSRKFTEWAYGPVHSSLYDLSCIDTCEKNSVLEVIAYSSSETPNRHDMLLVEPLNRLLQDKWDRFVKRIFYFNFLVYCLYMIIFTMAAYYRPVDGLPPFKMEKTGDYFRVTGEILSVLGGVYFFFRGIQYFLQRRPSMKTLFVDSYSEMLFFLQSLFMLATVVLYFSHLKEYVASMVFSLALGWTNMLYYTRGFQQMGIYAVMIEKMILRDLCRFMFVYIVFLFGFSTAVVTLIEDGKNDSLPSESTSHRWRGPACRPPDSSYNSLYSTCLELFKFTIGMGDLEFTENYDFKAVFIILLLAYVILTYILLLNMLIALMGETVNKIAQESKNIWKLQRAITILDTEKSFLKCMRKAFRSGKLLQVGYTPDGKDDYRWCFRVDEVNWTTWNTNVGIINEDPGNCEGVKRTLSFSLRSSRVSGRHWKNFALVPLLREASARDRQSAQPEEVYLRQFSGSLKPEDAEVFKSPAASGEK
#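 TRPV1-expressing cells were cultured overnight at 35.5C and loaded with Fluo-8 calcium dye for 40 to 90 min at room temperature. After a 10 s baseline, compound was added and calcium influx was read kinetically for 3 min (ex 480/em 520 nm).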
# Menin-MLL FL inh – qHTS Assay for Inhibitors Targeting the Menin-MLL Interaction in MLL Related Leukemias: Competition With Fluorescein Labeled MLL-derived Peptide; 290,000 tested, under 10 active; FP activity change, % at 61.4 µM; Fluorescence polarization, fluorescein-MLL peptide displacement from menin; inconclusive = falling polarisation curve, or a change in total fluorescence; inactive = total fluorescence flat and polarisation flat or rising; no compound was filed as active; the % refers to the polarisation; negative = inhibition;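 also: % of control where 0% means no effect; inhibitors lower the polarisation; unlabelled MLL peptide was the positive control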
# ClpP mod – qHTS Assay for Activators of ClpP; purified B. subtilis ClpP, FRET peptide cleavage, 20 min; Potency, µM (highest dose often 57.5 µM), for the others: top-dose activity change, negative = active; hit rate 1.9% among 340,000; active = well fitted falling curve with a large enough effect; inconclusive = small, poorly fitted or top-dose-only effect; inactive = no such curve, though single readings can be large or run the other way; also: potency is read from the fitted curve at half-maximal effect; the source files actives as falling curves though it sought activators and does not explain the sign; nearly all actives have a fitted effect of over 65% in size; many hits overshoot -100%
# Target sequence (P80244 whole entry, looked up): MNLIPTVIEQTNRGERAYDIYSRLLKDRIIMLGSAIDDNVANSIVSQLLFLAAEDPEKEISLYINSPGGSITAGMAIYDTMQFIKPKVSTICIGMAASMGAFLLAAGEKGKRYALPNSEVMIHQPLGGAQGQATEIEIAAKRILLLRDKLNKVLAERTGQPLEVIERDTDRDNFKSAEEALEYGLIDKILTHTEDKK
#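 Buffer: 100 mM Tris/HCl pH8, 100 mM KCl, 0.05% low protease BSA, 2.5% glycerol, 0.01% Tween-20. ClpP 10 microg/mL final; 20 min RT; delta FRET normalized to ADEP and DMSO controls.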
# gsp ag – qHTS for Agonist of gsp, the Etiologic Mutation Responsible for Fibrous Dysplasia/McCune-Albright Syndrome: qHTS | gsp mutant cells, cAMP HTRF, 30 min; control for the full effect not named in the record | Potency, µM (titrated, usually from 76.9 µM), without a hit: at the highest dose activation (cAMP increase), hits mostly activators | hit rate 0.13% among 340,000 | AID 624287, 2012; active = well fitted activation curve with a large enough effect; inconclusive = small, poorly fitted or top-dose-only effect, or another doubt; inactive = no such curve, though single readings can be large or run the other way; cell line not stated here;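 also: phosphodiesterase inhibitor Ro 20-1724 added with compounds to block cAMP breakdown; potency is read from the fitted curve at half-maximal effect; nearly all actives have a fitted effect of over 60% in size; about a fifth of the inactives were tested at one dose only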
#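 Cells stably selected in G418 were plated at 2000/well, grown 16-24 hr, then given compounds in DMSO with the PDE inhibitor […] (300 uM solution added) for 30 min at 37C; cAMP was read by HTRF.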
# gsp antag – qHTS for Antagonists of gsp, the Etiologic Mutation Responsible for Fibrous Dysplasia/McCune-Albright Syndrome: qHTS. Potency, µM (doses to about 76.9 µM), inactives show at the top dose activity change, negative = inhibition, hits mostly inhibitors. hit rate 0.4% among 340,000. gsp-mutant cells, cAMP HTRF, 30 min; control for the full effect not named in the record; active = falling curve of any shape with a large fitted effect; inconclusive = falling curve, mostly with a smaller effect; inactive = flat or rising curve; cell line not stated here;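 also: intracellular cAMP measured with PDE inhibitor Ro 20-1724 present during compound exposure; potency is read from the fitted curve at half-maximal effect; % is scaled to controls: 0 for no effect and ±100 for the full control effect; nearly all actives have a fitted effect of over 65% in size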
#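 Measurement of cellular cAMP by homogeneous time-resolved fluorescence following a 30 min compound exposure at 37C. The PDE inhibitor […] was present throughout; the assay buffer was DPBS with 0.05% BSA and 0.005% Tween 20.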
# Sfp inh – qHTS Assay for Inhibitors of Bacillus subtilis Sfp phosphopantetheinyl transferase (PPTase) | hit rate 3.5% among 310,000 | Biochemical Sfp PPTase activity, qHTS | 4'-phosphopantetheinyl transferase ffp (Bacillus subtilis), Q9F4F7 | Potency, µM, for the others: max response, negative = inhibition, most hits filed as inhibitors; active = well fitted inhibition curve with a large enough effect; inconclusive = small, poorly fitted or top-dose-only effect, or another doubt; inactive = no such curve, though single readings can be large or run the other way;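 also: the enzyme is Sfp with the accession as filed and its product quenches rhodamine fluorescence; potency is read from the fitted curve at half-maximal effect; 0% = enzyme reaction without inhibitor and -100% = no enzyme wells; top concentration of the series not given in the record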
#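 Reaction rates are the 30-min fluorescence difference (ex 525, em 598 nm) in wells containing 15 nM Sfp, 5 uM rhodamine-CoA and 12.5 uM BHQ-2-YbbR at pH 7.6 with 10 mM MgCl2.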
# Active calls of the source: *; ? = inconclusive; / = not tested or not shown; [ ] = dose if it differs, or a comment. Rows are unselected. About 5.3% of those tested had a hit in this group.
SMILES,CtBP-E1A blk,TRPV1 PAM,Menin-MLL FL inh,ClpP mod,gsp ag,gsp antag,Sfp inh
O=C(Nc1ccccc1)/C(=C\c1ccc2c(c1)OCO2)NC(=O)c1ccco1,-9.5,-11.5,-3.2,0.4%,7.6%,2.6%,12.9%
COc1cc(C(=O)Nn2cnnc2)ccc1OC(F)F,4.1,7.1,-1.1,-0.6%,-2.0%,4.5%,13.0%
Cc1ccc(C(c2c(O)nc3n(c2=O)CCS3)c2c(O)nc3n(c2=O)CCS3)cc1,-9.3,17.0,-1.2,/,17.4%[15.4 µM],12.1%,?
Cc1cc(C(=O)Nc2ccc(Cl)cc2)n(-c2ccccc2)n1,6.2,5.2,-1.2,-1.5%,18.3%,-2.4%,6.6%
COc1cccc(CNC(=O)CCC2CCCN(C(=O)Cc3ccccc3F)C2)c1 (stereo not given),0.0,5.3,3.2,0.4%,-3.8%[15.4 µM],-9.7%,9.2%
O=C(CN1C(=O)C2CC=CCC2C1=O)Nc1nnc(C2CC2)s1 (stereo not given),4.6,1.8,/,0.7%,21.8%,-18.5%,/
CCn1cc(C(=O)NC(C)C)c(=O)c2cc(F)c(N3CCN(C(=O)c4ccco4)CC3)cc21,-4.5,15.2,-0.9,3.3%,-93.0%[inhibitor],-23.9%,10.0%
COc1ccccc1CN1CC(C(=O)NCc2ccc(N3CCCC3=O)cc2)CCC1=O (stereo not given),/,-2.6,/,4.3%,1.0%,-16.5%,10.8%
CCCn1c(CNc2ccc(Br)cc2)nc2ccccc21,-4.7,/,0.6,-29.5%,-62.9%[inhibitor],?,-10.1%
CN(C)c1cccc(C(=O)NCCCSc2ccccc2)c1,-18.7,-4.8,-4.8,?,?,1.0%,-4.9%
Cc1sc2ncnc(NCC(O)c3ccc([N+](=O)[O-])cc3)c2c1C (stereo not given),-7.7,-6.5,0.6,/,-1.5%[15.4 µM],?,3.6%
Cc1ccc(C)c(S(=O)(=O)Nc2ccc(C(=O)N3CCOCC3)cc2)c1,-8.9,/,/,0.0%,-70.0%[inhibitor],/,/
CCOc1ccc(NC(=O)c2ccc(NC(=O)c3ccc(NC(N)=O)cc3)cc2)cc1,-5.1,/,/,/,20.7%,0.6%,/
COC(=O)c1c(NC(=O)Cc2cccs2)sc2c1CCC(C)C2 (stereo not given),4.4,-2.4,-5.2,-23.9%,-18.0%,-0.4%,20µM*
COc1ccccc1NC(=O)CNC(=O)c1ccc([N+](=O)[O-])cc1,/,24.4,3.2,-3.3%,9.2%,4.5%,12.1%
CCn1c(SC(C)C(=O)OC)nnc1-c1c[nH]c2ccccc12 (stereo not given),4.4,7.8,0.0,-1.7%,-20.7%,-12.2%,5.1%
COc1ccc(OC)c(S(=O)(=O)NCCc2ccccc2)c1,0.2,-12.4,1.1,-2.5%,-50.8%[inhibitor],-7.3%,-1.2%
CC1CN(CCOc2cccc(Oc3ccccc3)c2)CC(C)O1 (stereo not given),9.0,9.4,-0.1,0.5%,10.8%,7.3%,14.8%
Cc1ccc(-c2[nH]c(-c3ccc(Cl)cc3)nc2SCC(=O)NCC2CCCO2)cc1 (stereo not given),-0.2,?,1.1,4.2%,-10.3%,?,-27.7%
C[n+]1ccccc1/C=C/c1ccc(C#N)cc1,3.3,-4.3,0.4,/,-44.0%[inhibitor],-2.9%,?
N/C(=N\OC(=O)c1cccs1)c1cccnc1,4.0,1.1,-0.5,/,-15.1%,10.1%,12.8%
COc1ccc(OCC(=O)N(Cc2cccs2)C2CCS(=O)(=O)C2)cc1 (stereo not given),/,8.1,/,-0.6%,22.7%,4.1%,6.4%
CCNC(=O)Nc1ccc(-n2nc(C)c(C(=O)OCC)c2C)nc1,/,15.7,2.0,-18.6%,1.9%,-2.4%,7.6%
O=C(Nc1ccc(Cl)cc1)N1CCCC1,6.4,-3.5,1.0,0.6%,-36.1%[inhibitor],-8.0%,10.1%
CCOC(=O)C1Nc2ccc(C(F)(F)F)cc2C2C=CCC12 (stereo not given),-2.5,/,/,-13.3%,-9.4%,-5.8%,/
COc1cccc(N2CCN(C(=O)CCCCCn3c(=S)[nH]c4cc5c(cc4c3=O)OCO5)CC2)c1,2.5,4.3,2.0,-0.9%,-13.8%,-6.5%,24.6%
O=C1NC2CCCCC2C(=O)N1OS(=O)(=O)c1ccccc1 (stereo not given),0.0,/,/,2.3%,-9.7%[15.4 µM],-28.9%,/
CC(=O)C1=C(C)NC(=O)NC1/C=C/c1ccccc1 (stereo not given),/,-4.1,-0.7,-1.7%,?,7.9%,-4.0%
Cc1c(NC(=O)c2ccc(CN3CCc4ccccc4C3)cc2)c(=O)n(-c2ccccc2)n1C,-0.9,-35.5,1.2,0.5%,2.1%,11.6%,-0.8%
Cc1ccccc1N1CCN(C2CCCN(C(=O)CCN3CCCO3)C2)CC1 (stereo not given),-4.4,3.5,/,1.3%,16.0%,1.9%,17.9%
Cc1ccc2[nH]cc(/C=C/c3cc[n+](C)cc3)c2c1,1.2,-12.3,?,/,?,?,-9.2%
CCn1c(SCC(=O)Nc2ccccc2C(=O)OC)nnc1-c1ccoc1C,-3.0,-0.5,3.1,-3.6%,4.5%,-2.2%,2.8%
O=C(O)c1ccc(N2C(=O)CC(SC(=NCc3ccc4c(c3)OCO4)Nc3ccc(F)cc3)C2=O)cc1 (stereo not given),/,12.7,-3.2,/,17.6%[15.4 µM],-19.0%,-2.5%
CC(C)CC(C(=O)Nc1oc(-c2ccco2)c(-c2ccco2)c1C#N)N1C(=O)c2ccccc2C1=O (stereo not given),-17.4,0.0,?,0.3%,-20.3%,?,39.8µM*
N#C/C(=C\c1cccc(OC(=O)c2cccs2)c1)C(N)=O,6.4,4.9,0.8,1.3%,-7.2%,0.3%,8.4%
CCCCNC(=O)c1cccnc1SCC(=O)Nc1ccccc1OC,6.4,8.2,10.9,0.7%,-4.6%[15.4 µM],-5.4%,-0.5%
O=c1c2ccccc2c(C=NCCCN2CCOCC2)c(O)n1Cc1ccccc1,-9.5,-5.6,-1.1,-0.9%,-18.8%,5.0%,-8.9%
Cc1ccc(C2C(C#N)C(C#N)N3CCCN23)cc1 (stereo not given),7.1,10.3,1.0,-0.9%,-4.7%,-3.4%,-10.4%
CSCc1ccc(C(=O)OCc2nc3ccccc3s2)o1,-5.3,/,/,/,-3.9%,5.3%,/
O=C(CCN1C(=O)C2CCCCC2C1=O)Nc1ccc(F)c(F)c1F (stereo not given),-11.9,-7.1,-1.4,/,-2.9%[15.4 µM],/,14.0%
Cc1cccc(NS(=O)(=O)c2cccc(C(=O)NCC(C)(C)N3CCOCC3)c2)c1,-5.0,7.7,3.1,-1.7%,0.0%,-1.1%,11.5%
C=CCc1cccc2cc(C(=O)NC3=C(C#N)CCC3)c(=O)oc12,-0.2,4.5,1.7,-0.6%,-30.9%[inhibitor],0.6%,14.1%
Cc1ccc(C)c(CN2CCC(CNC(=O)Nc3ccc(C)c(C)c3)CC2)c1,-1.3,8.5,0.6,/,-4.7%,4.9%,7.2%
O=C1N/C(=N\N=C\c2ccco2)SC1Cc1ccccc1[N+](=O)[O-] (stereo not given),/,13.1,-6.1,-1.3%,-30.7%[inhibitor],-12.4%,-5.4%
[N-]=[N+]=NC[C@H](c1ccccc1)N1CCN(Cc2ccccc2)CCC1=O,0.5,4.9,-11.2,1.1%,/,7.4%,8.6%
CCC(C)(NC=O)C(=O)Nc1c(C)cccc1C (stereo not given),-0.9,/,6.4,-0.3%,-5.8%[15.4 µM],7.0%,21.6%
CCn1c(CNC(=O)c2ccco2)nnc1SCC(=O)c1ccc(OC)cc1,/,-2.8,3.4,-0.8%,-40.8%[inhibitor],-1.9%,-7.5%
CCN(CC)CCNC(=O)c1cn(C)c2ccc(S(=O)(=O)N(C)C3CCCCC3)cc2c1=O,1.7,-1.5,0.9,-1.7%,-59.5%[inhibitor],-11.2%,16.3%
O=S(=O)(c1cccs1)N1CN(C2CCCCC2)c2nc3ccccc3nc21,-16.0,-2.2,-0.9,/,-13.9%[15.4 µM],?,-5.9%
CCCCn1c(N)c(N(CCC(C)C)C(=O)c2ccc(C)o2)c(=O)[nH]c1=O,/,-11.4,/,-1.1%,-19.9%,5.9%,/
CC(C)c1csc(CN2CCC(N3CCC(C(=O)N4CCOCC4)CC3)CC2)n1,2.4,-7.7,-0.4,/,-1.2%[15.4 µM],3.0%,9.3%
COc1ccc(CN(C(=O)Cn2nnc3ccccc32)C(C(=O)NC(C)(C)C)c2ccco2)cc1 (stereo not given),3.3,-4.3,1.6,1.7%,-23.4%,5.0%,18.4%
O=C(CCN=C1NS(=O)(=O)c2ccccc21)Nc1ccc(F)cc1Cl,/,/,/,2.1%,-0.4%,1.2%,/
CCC(C)(C)C1CCC2(CC1)NC(=O)N(CC(=O)NCCCc1ccccc1)C2=O (stereo not given),0.0,-0.1,/,1.3%,?,11.2%,/
O=C(CN1CC[n+]2c(-c3cccs3)csc21)c1ccc(-c2ccccc2)cc1,3.5,14.7,2.0,0.6%,3.5%[15.4 µM],4.3%,-13.7%
O=C(CC(=O)Nc1cccc(Cl)c1Cl)Nc1cccc(Cl)c1Cl,/,6.7,2.2,-0.2%,-0.4%,5.4%,4.5%
O=C(N=Nc1c(O)[nH]c2ccccc12)c1cc(-c2ccc(F)cc2)n[nH]1,7.1,11.6,-1.9,/,10.0%,6.8%,-9.5%
COc1ccc(C)cc1NC(=O)Nc1ccc(Br)cn1,6.2,7.6,2.4,0.7%,15.3%,-0.7%,11.2%
Cc1ccc(S(=O)(=O)c2ccc(Oc3ccccc3)cc2)cc1,31.1,-10.1,5.4,0.2%,16.3%,-24.9%,2.1%
Fc1ccccc1-c1csc(-c2cccnc2)n1,5.1,-0.8,-0.1,/,3.4%[15.4 µM],4.6%,8.2%
